Compound activity from PubChem.
Sa growth inh: blocks Staphylococcus aureus growth; S. aureus RN4220 growth, OD600, 20 h, 42 °C; active compounds read low; relative growth, % (no concentration beside the values); 0.53% of 170,000 active; AID 720641;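 active means growth at 42 °C up to 50% and 20 or more points under that at 30 °C, or under 10% at both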;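 further: 300 nL library stock went into each well; scaled to the means of positive and negative controls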
HCMV UL50-53 inh: inhibitors of HCMV UL50-UL53 nuclear egress complex interaction; 0.15% of 190,000 active; AID 1918969; inhibition, % (no concentration beside the values); HTRF UL50-UL53 interaction, normalized percent inhibition;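 active means both replicates at 50% or more, plus weaker picks with an unusually low signal ratio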;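 further: stock transfer was 100 nL into about 20 µL; 0% = negative control wells and 100% = wells with untagged competitor protein; inactives centre near -12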
GIV Gai3 FP: inhibitors of GIV GBA-motif binding to rat Galpha-i3; AID 1224905; P08753; 0.42% of 210,000 active; Galpha-i3/FITC-GIV peptide fluorescence polarization, 90 min; active compounds read low; scaled: aluminum fluoride 0%, vehicle 100%; percent of control (FP), % (concentration not given with the values);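 active means replicate mean at 85% of control or lower, very high polarization wells dropped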;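 further: wells of about 15 µL received 100 nL stock; the first replicate is given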
Target sequence (P08753 whole entry, looked up): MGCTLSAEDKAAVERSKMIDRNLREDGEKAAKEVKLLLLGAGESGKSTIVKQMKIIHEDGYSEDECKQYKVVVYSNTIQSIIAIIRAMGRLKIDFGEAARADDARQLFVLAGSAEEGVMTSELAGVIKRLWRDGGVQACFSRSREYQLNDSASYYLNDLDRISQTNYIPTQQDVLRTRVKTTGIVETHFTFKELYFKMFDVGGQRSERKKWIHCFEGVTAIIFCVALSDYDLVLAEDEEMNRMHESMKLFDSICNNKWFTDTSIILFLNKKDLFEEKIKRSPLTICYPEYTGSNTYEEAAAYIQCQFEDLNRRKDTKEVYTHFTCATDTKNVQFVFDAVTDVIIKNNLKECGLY
Sa growth inh second temp: also measured in Sa growth inh; calls as there; relative growth, %; measured here: growth at 30 °C;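 optical density after 20 h as mean of two plates; 100% = untreated growth and lower means inhibition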
Numbers without * were called inactive; x = no result given; & = joins results of further samples.

The opening 6 compounds as a preview:
SMILES	Sa growth inh	Sa growth inh second temp	HCMV UL50-53 inh	GIV Gai3 FP
COc1ccc(-c2nc3ccccc3o2)cc1NC(=O)c1ccc(-c2cccc(Cl)c2C)o1	102.1	86.8	-54.5	108.2
N#CCC(=O)Nc1ccc(S(N)(=O)=O)cc1	98.0	94.2	-10.2	x
CN(Cc1ccccc1)C(=O)CSc1ccc(Br)cc1	119.1	86.4	-36.1	x
Cc1cc(O)c(C(c2ccc(F)cc2)N2CCN(c3ccccc3)CC2)c(=O)n1Cc1ccco1 (stereo not given)	82.1	84.8	x	97.7
CCCCOc1ccc(C(=O)NCCc2sc3nc(-c4ccc(OC)cc4)nn3c2C)cc1	130.0	95.7	x	101.1&98.1
CCOC(=O)N1CCC(NS(=O)(=O)c2ccccc2)CC1	93.3	85.2	46.6	99.0

The list itself, previewed entries included:
SMILES	Sa growth inh	Sa growth inh second temp	HCMV UL50-53 inh	GIV Gai3 FP
COc1ccc(-c2nc3ccccc3o2)cc1NC(=O)c1ccc(-c2cccc(Cl)c2C)o1	102.1	86.8	-54.5	108.2
N#CCC(=O)Nc1ccc(S(N)(=O)=O)cc1	98.0	94.2	-10.2	x
CN(Cc1ccccc1)C(=O)CSc1ccc(Br)cc1	119.1	86.4	-36.1	x
Cc1cc(O)c(C(c2ccc(F)cc2)N2CCN(c3ccccc3)CC2)c(=O)n1Cc1ccco1 (stereo not given)	82.1	84.8	x	97.7
CCCCOc1ccc(C(=O)NCCc2sc3nc(-c4ccc(OC)cc4)nn3c2C)cc1	130.0	95.7	x	101.1&98.1
CCOC(=O)N1CCC(NS(=O)(=O)c2ccccc2)CC1	93.3	85.2	46.6	99.0
CC(OC(=O)c1ccccc1NC(=O)c1ccco1)C(=O)N1CCN(C(=O)c2ccco2)CC1 (stereo not given)	86.3	92.5	-3.1	x
CCn1c(NCc2ccc3c(c2)OCO3)nc2ccccc21	91.8	87.8	-0.7	x
NC(=O)c1ccc(-c2ccc(/C=C3\C(=O)ON=C3c3ccccc3)o2)cc1	79.2	56.7	2.4	101.0
CC1CCC(C(=O)NC(Cc2c[nH]c3ccccc23)C(=O)NC2CCCCC2C)CC1 (stereo not given)	111.0	91.3	x	100.9
COc1cccc(C(=O)O/N=C(\N)Cc2ccc(OC)c(OC)c2)c1	94.8	69.2	-23.8	105.6
CCN(CC)c1nc(N2CCN(CCO)CC2)nc2ccccc12	98.0	87.1	-23.5	105.0
C=CCOC1(c2ccccc2)OC(=O)c2ccccc21 (stereo not given)	102.8	116.6	-0.4	105.0
Cc1cc(N2CCOCC2)nc2ccc(N)cc12	90.1	47.4	-22.7	103.5
N#Cc1c(C(F)(F)F)cc(-c2cccs2)nc1SCc1ccc(F)cc1	113.8	100.4	-5.8	104.8
CC(C)(Oc1ccc(Cl)cc1)C(=O)NCC1CCCO1 (stereo not given)	98.3	91.6	0.7	x
CCN1C(=O)/C(=C2/C=Cc3ccccc3N2CC)SC1=S	113.2	86.5	x	97.2
CCCCc1nn2c(=O)cc(COC(=O)c3ccc(NC(=O)c4cccc(OC)c4)cc3)nc2s1	81.5	99.5	x	108.0
CC1CCCC(C)N1C(=O)CN1CCC(O)(c2ccccc2)CC1 (stereo not given)	92.6	101.6	4.6	103.7
CCCCOc1ccc(NC(=O)CSc2ccc(C(=O)O)cn2)cc1	103.9	91.2	-26.3	99.3

Some of these compounds in order of count of non-hydrogen atoms, low to high.
SMILES	Sa growth inh	Sa growth inh second temp	HCMV UL50-53 inh	GIV Gai3 FP
Cc1cc(N2CCOCC2)nc2ccc(N)cc12	90.1	47.4	-22.7	103.5
CC(C)(Oc1ccc(Cl)cc1)C(=O)NCC1CCCO1 (stereo not given)	98.3	91.6	0.7	x
CCCCc1nn2c(=O)cc(COC(=O)c3ccc(NC(=O)c4cccc(OC)c4)cc3)nc2s1	81.5	99.5	x	108.0

Remaining list, next part.
SMILES	Sa growth inh	Sa growth inh second temp	HCMV UL50-53 inh	GIV Gai3 FP
Cc1cccc(Cn2cccc2CNC(=O)NCC2CCCO2)c1 (stereo not given)	x	x	-10.9	104.6
O=C(c1cccs1)N1CCSC1=S	78.6	88.3	x	95.8
CCn1nc(C)c(CCN(C)C(=O)Nc2ccc(Br)c(C)c2)c1C	x	x	-24.0	104.5
Cc1c(C(=O)CSc2n[nH]c(=O)n2C2CC2)sc2ccc(Cl)cc12	105.2	86.6	-34.7	98.4
Cc1ccc(NS(=O)(=O)c2cc(-c3cc(C)[nH]n3)ccc2C)c(C)c1	x	x	1.5	110.7
COCCNC(=O)C1=CC(c2ccc(C)cc2)=NS(=O)(=O)N1C	103.7	90.8	-48.1	104.0
Cc1ccc2nc3ccc(N4CCCCCCC4)nn3c(=O)c2c1	87.2	69.5	-52.7	107.2
O=C1CC(Cc2ccccc2)C(=O)N1Cc1ccc2c(c1)OCO2 (stereo not given)	102.8	102.6	-19.1	102.8
COc1ccc(S(=O)(=O)N(CC(=O)NCc2ccc(C)cc2)c2ccc(Cl)cc2)cc1	104.8	101.6	2.8	105.5
COc1cc(C(=O)NCC(c2cccnc2)N2CCc3ccccc32)cc(OC)c1OC (stereo not given)	87.8	82.5	-10.2	103.4

Reprinted at random: 5 compounds from above, in no set order.
SMILES	Sa growth inh	Sa growth inh second temp	HCMV UL50-53 inh	GIV Gai3 FP
O=C(c1cccs1)N1CCSC1=S	78.6	88.3	x	95.8
CCn1nc(C)c(CCN(C)C(=O)Nc2ccc(Br)c(C)c2)c1C	x	x	-24.0	104.5
Cc1ccc2nc3ccc(N4CCCCCCC4)nn3c(=O)c2c1	87.2	69.5	-52.7	107.2
COc1ccc(S(=O)(=O)N(CC(=O)NCc2ccc(C)cc2)c2ccc(Cl)cc2)cc1	104.8	101.6	2.8	105.5
Cc1ccc(NS(=O)(=O)c2cc(-c3cc(C)[nH]n3)ccc2C)c(C)c1	x	x	1.5	110.7

Carrying on.
SMILES	Sa growth inh	Sa growth inh second temp	HCMV UL50-53 inh	GIV Gai3 FP
O=S(=O)(c1ccc(Sc2ccc(S(=O)(=O)N3CCCC3)cc2)cc1)N1CCCC1	88.0	83.7	-25.0	101.4
Cc1ccc(N2CC(NC(=O)c3ccco3)CC2=O)cc1C (stereo not given)	88.9	93.0	x	95.5
Cc1cc(CNC(=S)Nc2ccc(F)cc2F)nn1C	100.1	100.6	1.5	108.4
CCc1ccc(NC(=O)C2CCCN(C(=O)c3cnn(-c4ccccc4)c3-n3cccc3)C2)cc1 (stereo not given)	103.2	84.1	-16.2	103.1
CCCCc1c(O)nc(SCCN(C)C)n(-c2ccccc2)c1=O	95.8	77.2	x	99.9
O=C(CSc1nc2ccccc2[nH]1)Nc1ccc(C(=O)O)cc1	113.9	89.0	-19.1	108.8
CC(C)CC(=O)Nc1ccc(C(=O)OCc2cc(=O)n3nc(C(C)C)sc3n2)cc1	74.7	96.0	x	106.6
COc1ccc(N(CC(=O)N2CCc3ccccc3C2)S(=O)(=O)c2ccccc2)cc1	102.3	91.8	-18.2	94.0
COc1ccc(NC(=O)CCCc2nnc3n(C(C)C)c(=O)c4sccc4n23)cc1OC	92.2	81.8	-34.4	100.4
N#CC1(C#N)[C@@H]2c3ccccc3C=CN2[C@@H](C(=O)c2ccccc2)[C@@H]1c1cccs1	94.8	68.0	-28.8	x
CCc1nc(-c2cc(S(=O)(=O)N3CCC(C(=O)N(CC)CC)CC3)c(C)s2)no1	x	x	3.2	104.1
Oc1ccc(C2SCCS2)cc1	94.1	76.3	-34.9	x
Cc1cccc(Oc2nc3ccccn3c(=O)c2/C=C(\C#N)c2nc3ccccc3s2)c1C	74.2	79.8	-62.7	105.5
Cc1sc2nc3c(C(=O)N4CCN(c5ccccc5)CC4)cccn3c(=O)c2c1C	x	x	-6.2	108.2
CCOC(=O)C1CCCN(C(=O)CC)C1 (stereo not given)	94.0	95.9	-3.7	107.3
COc1ccccc1N/C=C(\C#N)c1nc2ccccc2[nH]1	114.7	77.2	-3.0	115.6
O=C(Nc1ccc2c(c1)OCCO2)N1CCCC1c1ccccc1Cl (stereo not given)	x	x	6.5	104.0
COc1cccc(C(=O)Nc2cccc(-c3cn4ccsc4n3)c2)c1OC	100.0	68.2	x	101.4
Cc1ccc(-n2c(SCC(=O)c3ccc(C#N)cc3)nc3ccccc32)cc1	96.3	87.3	-28.7	x
CC1(C(=O)NC2CCCCC2)Cn2c(ccc2-c2ccccc2)C(=O)N1Cc1ccc2c(c1)OCO2 (stereo not given)	x	x	3.9	99.9
O=C(NCc1cccs1)c1cccc(S(=O)(=O)N2CCCCC2)c1	99.4	92.9	1.1	x
CC(=O)N(Cc1ccccc1C)c1nc2ccccc2n(CC(=O)Nc2ccccc2Cl)c1=O	x	x	-17.6	105.2
CC(C)CNC(=O)c1cccc2ccccc12	111.2	93.4	-21.6	103.1
COc1ccc(NC(=O)c2sc(=S)n3c2[nH]c(=O)c2sccc23)cc1OC	100.5	71.2	-48.4	233.0
CC(C)OC(=O)c1cc2ccsc2n1CC(=O)Nc1ccccc1F	x	x	-25.5	104.8
CCN(CC)c1ccc(C(=O)NCc2nc3cccnc3n2Cc2ccc(C)cc2)cc1	122.9	101.3	x	118.0
Nc1c(C(=O)Nc2ccc3ccccc3c2)sc2nc3c(cc12)CCC3	103.8	91.3	x	105.8
Cc1[nH]c2ccc(C(=O)NC3CC3)cc2c1C	114.9	80.9	-29.2&-20.3	103.4&104.6
O=C(CNS(=O)(=O)c1cccs1)NC1CCCc2ccccc21 (stereo not given)	89.5	94.2	-5.3	118.0
CCOC(=O)c1cc2n(n1)CC(C)(C(=O)NC1CCCC1)N(c1ccc(F)cc1)C2=O (stereo not given)	x	x	-0.1	96.6
COCCNC(=O)C1CCCN(S(=O)(=O)c2ccc(OC)c(OC)c2)C1 (stereo not given)	92.9	101.0	5.5	103.1
Cc1cc(C)c(C(=O)Nc2cccc3c(=O)[nH][nH]c(=O)c23)c(C)c1	117.2	97.2	2.5	x
Cc1oc2cc3oc(=O)c(CC(=O)NCCc4ccccc4)c(C)c3cc2c1C	108.5	89.8	-6.3	104.2
CCc1nc2sc3c(N4CCC(C)CC4)ncnc3c2c2c1CCCC2	93.1	104.4	19.6	106.0
CCC(SC1=Nc2ccccc2C2=NC(C)C(=O)N12)C(=O)Nc1cc(F)ccc1F (stereo not given)	x	x	-20.3	106.1
CCOC(=O)c1c(NC(=O)CN2C(=O)CCSc3ccccc32)sc2c1CCCC2	109.7	88.4	x	100.9
CC(=O)Nc1ccc(C(=O)CSc2nnc3scc(-c4ccccc4)n23)cc1	104.4	75.6	-4.8	101.0
C(/C=C/c1ccc2c(c1)OCO2)=Nc1ccc(N2CCOCC2)cc1	89.4	81.6	-17.0	x
COc1ccc(Cc2c(O)nc(N)[nH]c2=O)cc1	78.2	82.9	x	100.6
Cc1cc(C)c(S(=O)(=O)NCC(=O)NC2CC2)c(C)c1	100.4	100.2	-4.3	100.2
Nc1nc(-c2ccccc2)cc(-c2ccccc2)n1	85.1	100.7	15.9	109.5
COc1ccc(NC(=C(C#N)C#N)C(F)(F)C(F)(F)F)cc1	35.8	14.1	x	97.6
CCc1cccc(CC)c1NC(=O)COC(=O)c1ccncc1	133.4	88.8	-12.2	x
COc1ccc(C)cc1Nc1ncnc2c1c(-c1ccccc1)cn2-c1ccc(C)cc1	103.3	98.5	x	107.5
CCOC(=O)N1CCN(S(=O)(=O)c2ccc(C(=O)Nc3cccc(-c4nc5ccccc5[nH]4)c3)cc2)CC1	x	x	-5.6	105.7
COC(=O)c1cc(-c2cccc(OC)c2)c2c(=O)[nH]c(=O)n(C)c2n1	99.2	68.8	x	95.6
Nc1cccnc1Nc1ccccc1	6.4*	8.2*	-35.7	102.7
COc1cc(NC(=S)N(C)CCC#N)c(OC)cc1Cl	103.7	94.5	-6.3	107.2
COC(=O)C1=C(C)OC(N)=C(C#N)C1c1ccccc1OC(=O)c1ccccc1Cl (stereo not given)	x	x	-11.6	106.9
O/N=C/c1ccc2cccc(O)c2n1	50.4	52.3	-62.0	104.9

Going on with the list:
SMILES	Sa growth inh	Sa growth inh second temp	HCMV UL50-53 inh	GIV Gai3 FP
CCOC(=O)COc1ccc(/C=c2\sc3n(c2=O)C(c2cccs2)C(C(=O)OCC)=C(C)N=3)cc1OCC (stereo not given)	x	x	-9.1	99.9
O=S(=O)(c1ccccc1F)N1CCN(c2nc3ccccc3n3cccc23)CC1	x	x	-8.7	101.8
CC(C)(CN1CCCCCC1)NS(=O)(=O)c1ccccc1	101.3	101.3	10.5	x
Cc1cc(NC(=O)COC(=O)c2cc(-c3ccco3)nc3ccccc23)n(-c2ccccc2)n1	123.2	86.2	-21.4	x
CC(=O)OC1=CC=CNC1=C(C#N)C#N	92.2	82.6	-41.4	104.7
